Screens: PubChem, several laboratories
RGS16-Gao HTS = regulators of human RGS16-Galphao interaction. 220,000 compounds, 0.38% hits. binding response (% of control), % at 10 µM. O15492+P09471. bead-based flow cytometry RGS16-Galphao binding, fluorescence; actives lie on both sides. AID 1441;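 active = below 25% or above 175%, edge rows of some plates excepted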;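 note: Galphao activated by GDP with aluminum fluoride before binding; 100% = wells without compound and 0% = beads without RGS; some results beyond the cut were filed as inactive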
Target sequence (O15492 whole entry, looked up): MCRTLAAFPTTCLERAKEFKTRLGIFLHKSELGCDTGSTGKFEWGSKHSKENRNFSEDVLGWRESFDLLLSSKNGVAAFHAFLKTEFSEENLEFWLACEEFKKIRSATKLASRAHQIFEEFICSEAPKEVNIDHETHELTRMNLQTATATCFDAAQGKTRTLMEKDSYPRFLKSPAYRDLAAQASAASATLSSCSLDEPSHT
Target sequence (P09471 whole entry, looked up): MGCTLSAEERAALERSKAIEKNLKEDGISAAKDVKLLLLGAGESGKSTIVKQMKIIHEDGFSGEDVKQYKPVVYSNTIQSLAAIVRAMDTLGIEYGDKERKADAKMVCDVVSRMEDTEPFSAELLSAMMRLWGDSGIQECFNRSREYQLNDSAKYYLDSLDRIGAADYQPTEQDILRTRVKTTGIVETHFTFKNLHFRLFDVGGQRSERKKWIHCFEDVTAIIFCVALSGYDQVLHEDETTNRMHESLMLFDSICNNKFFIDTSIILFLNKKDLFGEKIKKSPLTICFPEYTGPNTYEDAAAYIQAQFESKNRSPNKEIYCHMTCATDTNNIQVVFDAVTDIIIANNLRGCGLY
HSV augment = increases HSV replication in cells | AID 1956 | maximum fold increase | 220,000 compounds, 0.005% hits | HSV replication augmentation in cells, fold increase;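 active = peak rise of 1.5-fold or more in the series; tested in PC3 cells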;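 note: first round at 10 µM; read as green reporter fluorescence; hits show the peak of a series up to 25 µM; 1 = signal of infected wells without compound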
PKD1 inh = blocks activity of human protein kinase D1. Q15139. PKD1 kinase fluorescence polarization assay. inhibition, %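 (about 10 µM by stock and volumes)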. 200,000 compounds, 0.056% hits. AID 797;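 active = inhibition of 50% or more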;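 note: controls were vehicle for no effect and a reference inhibitor for full effect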
Insulin prom inh = TRM-6 insulin promoter activity inhibition; TRM-6 cells (human fetal islet line), insulin promoter-eGFP reporter, imaging; reporter expression induced with tamoxifen; 130,000 compounds, 0.9% hits; inhibition, % at 2 µM; AID 1273;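 active = inhibition above the mean plus 3 SD, with well images judged a real hit on visual review, cut at about 60% in these data, passing the limit was not always enough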
GALR2 agonist = agonists of human galanin receptor 2 (GALR2) | AID 803 | GALR2-expressing cells, agonist activation read-out | 140,000 compounds, 0.48% hits | activation, %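 (tested at 5 µM)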 | O43603;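 active = above mean plus 3 SD of all compounds, about 5% in these data, not always enough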;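 note: 0% = vehicle buffer wells and 100% = reference agonist at full effect; tested in CHO reporter cells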
Target sequence (O43603 whole entry, looked up): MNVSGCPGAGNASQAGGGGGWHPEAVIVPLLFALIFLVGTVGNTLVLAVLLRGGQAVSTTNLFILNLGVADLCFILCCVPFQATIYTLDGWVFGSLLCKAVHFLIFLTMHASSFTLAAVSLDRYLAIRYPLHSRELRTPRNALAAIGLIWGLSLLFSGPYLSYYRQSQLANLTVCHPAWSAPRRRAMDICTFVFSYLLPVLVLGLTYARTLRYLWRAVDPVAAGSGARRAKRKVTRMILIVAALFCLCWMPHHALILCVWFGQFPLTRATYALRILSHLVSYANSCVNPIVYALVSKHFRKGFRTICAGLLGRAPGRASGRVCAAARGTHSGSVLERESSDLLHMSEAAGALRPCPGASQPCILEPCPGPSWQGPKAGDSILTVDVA
Insulin prom inh cell count = recorded beside Insulin prom inh, whose call it bears; normalized cell count, %; measured here: cell count, toxicity; reference of the scale not given here;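 cells exposed to compound for 48 h; stained nuclei by imaging scaled within each plate; lower means fewer cells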
HSV augment primary fold = recorded beside HSV augment, whose call it bears; fold increase; compound at 10 µM; measured here: primary screen fold increase 10 uM; tested in PC3 cells;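 GFP signal in the first replicate; 1 = infected wells without compound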
Starred values were filed as active, the others as inactive; i = inactive; · = no result given. Random draw from the library; 1.3% or so of the library scored in one or more.

SMILES	RGS16-Gao HTS	HSV augment	HSV augment primary fold	PKD1 inh	Insulin prom inh	Insulin prom inh cell count	GALR2 agonist
COC(=O)Cc1c[nH]c2cccc(OCC(O)CN(Cc3ccc([N+](=O)[O-])cc3)C(C)(C)C)c12 (configuration not stated)	98	i	0.91	1	43	90	-2.0
COc1ccc(N(C(=O)c2ccco2)C(C(=O)NC2CCCC2)c2cccs2)cc1 (configuration not stated)	104	i	0.99	0	·	·	·
CC1(C)CC(=O)C2=C(C1)Nc1cc(Cl)ccc1S2	89	i	0.94	·	·	·	·
CC(C)N1CC2(c3ccccc3)CN(C(C)C)CC(c3ccccc3)(C1)C2=O	110	i	1.1	-2	-54	227	-1.0
CC(C)NCCOc1cccc(Br)c1	101	i	0.96	-3	43	144	-1.6
Cc1c(NC(=O)/C(C#N)=C/c2ccccc2)c(=O)n(-c2ccccc2)n1C	107	i	0.98	6	·	·	·
Nc1nc(Br)c2c(F)cccc2c1-c1ccc(Cl)cc1	92	i	0.99	4	44	116	13*
N#CC1=C(SCC(=O)Nc2ccccc2)NC(=O)CC1c1ccco1 (configuration not stated)	102	i	0.74	-3	25	73	-1.4
Nc1nc2ccccc2n1/N=C/c1ccc2c(c1)OCO2	101	i	1.2	·	·	·	·
CCOc1ccc(NC(=S)NC(C)C(c2ccccc2)N2CCN(C)CC2)cc1 (configuration not stated)	91	i	0.78	7	-20	143	·
Cc1ccnc(NS(=O)(=O)c2ccc(NC(=O)c3cc(-c4ccc(Br)cc4)nc4ccccc34)cc2)n1	105	i	1	-2	11	116	-0.3
CC(=O)Nc1ccc(S(=O)(=O)NC(CC(=O)NCCCN2CCOCC2)C(C)C)cc1 (configuration not stated)	100	i	0.97	7	·	·	-1.0
O=C1NC(c2ccccc2)(C(F)(F)F)SC2=NCCCN12 (configuration not stated)	96	i	0.95	3	43	155	0.0
CCOc1ncccc1C(=O)OCC(=O)NC1CC1	100	i	0.77	1	·	·	·
CCc1ccc(-c2nc(CN3CCC(C(=O)N4CCN(c5ccccn5)CC4)CC3)c(C)o2)cc1	97	·	·	-6	·	·	-0.5
N/C(=N\OS(=O)(=O)c1ccc2ccccc2c1)c1ccncc1	95	i	1.1	-10	-3	93	-0.2
Cc1csc(NC(=O)C(CC(C)C)NS(=O)(=O)c2ccc3c(c2)oc(=O)n3C)n1 (configuration not stated)	95	i	0.69	1	·	·	-3.0
CN(C)C/C=C/C(O)(c1ccccc1)c1ccccc1	98	i	0.96	·	·	·	·
CCC(=O)NC(=S)Nc1cccc(NC(=O)c2ccccc2)c1	114	i	1.1	-8	·	·	·
COCCn1c(SCC(=O)NCc2ccccc2)nnc1-c1ccco1	106	i	0.75	2	-68	88	-3.2
CC1CCCC(C)N1/N=C/c1ccc(C#N)cc1 (configuration not stated)	98	i	0.9	-7	·	·	·
Cc1nc(SCC(=O)Nc2ccc(Cl)cc2[N+](=O)[O-])nc(C)c1C	90	i	0.91	6	-62	94	-1.4
COc1ccc2c(c1)CCN(C(=O)CCl)C2C1C(=O)CCCC1=O (configuration not stated)	102	i	1	-8	0	104	0.4
CCN1CCN(Cc2ccc(NC(=O)c3cc(NC(=O)C4=NN(c5ccccc5)C(=O)C4)cc(OC)c3)cc2C(F)(F)F)CC1	97	i	0.86	·	·	·	·
CCN(CC(=O)Nc1ccc(NC(C)=O)cc1)c1ccc(C(F)(F)F)cn1	109	i	0.92	-7	7	136	0.5

Record cards, from the list above:
O=C1NC(c2ccccc2)(C(F)(F)F)SC2=NCCCN12 (configuration not stated) reads RGS16-Gao HTS = 96; HSV augment = i; HSV augment primary fold = 0.95; PKD1 inh = 3; Insulin prom inh = 43; Insulin prom inh cell count = 155; GALR2 agonist = 0.0
CCN(CC(=O)Nc1ccc(NC(C)=O)cc1)c1ccc(C(F)(F)F)cn1 reads RGS16-Gao HTS = 109; HSV augment = i; HSV augment primary fold = 0.92; PKD1 inh = -7; Insulin prom inh = 7; Insulin prom inh cell count = 136; GALR2 agonist = 0.5

(further entries)
SMILES	RGS16-Gao HTS	HSV augment	HSV augment primary fold	PKD1 inh	Insulin prom inh	Insulin prom inh cell count	GALR2 agonist
O=C(CCC1CCCN(Cc2ccc3c(c2)OCCO3)C1)NCc1ccc(F)c(F)c1 (configuration not stated)	103	i	1	1	·	·	·
COc1cccc(-c2cc3nc4c(c(N5CCC6(CC5)OCCO6)n3n2)CCC4)c1	115	i	1.1	2	·	·	·
Cn1c(=O)[nH]c2nnc(-c3ccc(Cl)c(Cl)c3)nc2c1=O	94	i	0.85	·	·	·	·
C=CCNC(=S)N1CCc2[nH]c3ccccc3c2C1	94	i	0.87	·	·	·	·
Cc1cc(/C=C(\C#N)C(=O)NCC2CCCO2)c(C)n1-c1ccc(Cl)cc1 (configuration not stated)	100	i	0.99	-1	28	125	-1.1
Cc1ccnc(NC(=O)/C=C/c2ccccc2[N+](=O)[O-])c1	103	i	1	0	47	96	·
CC(C)CNC(=O)c1ccc(COc2ccc(Cl)cc2Cl)o1	45	i	0.88	2	8	150	-0.6
CCN(CC)S(=O)(=O)c1ccc(N2CCOCC2)c(NC(=O)CC(C)(C)C)c1	99	i	1.1	·	·	·	·
CC(C)Cc1nc(SCc2cccnc2)c2c(=O)n(C)c(=O)n(C)c2n1	108	i	0.9	-6	-75	70	·
Cc1ccc(CC2S/C(=N/c3ccccn3)NC2=O)cc1 (configuration not stated)	99	i	0.96	-9	0	150	-1.1
N#Cc1cc(C(=O)c2cc(Br)ccc2O)cn(C2CCCCC2)c1=O	98	i	0.94	-5	-26	76	0.1
O=C(Cn1cnc2ccccc2c1=O)NCc1ccco1	113	i	1	-9	32	91	-1.3
COc1ccccc1-c1cc(C(=O)N/N=C/c2cccs2)c2ccccc2n1	102	·	·	4	22	120	-1.7
C/C(=N\Nc1ccccc1[N+](=O)[O-])c1ccc(N2CCOCC2)cc1	101	i	0.99	2	·	·	·
CCCCn1c2nc3ccccc3nc2c2c(=O)n(C(C)CC)cnc21 (configuration not stated)	103	i	1	3	-31	140	-1.4
CCn1cc(SCC(=O)N2CCc3ccccc32)c2ccccc21	97	i	0.94	4	·	·	-3.2
O=C(O)C1CCCCC1C(=O)Nc1nc(-c2cccs2)cs1 (configuration not stated)	102	i	0.92	-1	-23	128	-1.6
Cc1ccc(C)c(N2CN(Cc3ccco3)CNC2=S)c1	108	i	0.93	2	-5	89	-1.3
O=S(=O)(Cc1ccccc1)N1CCN(c2ccccc2)CC1	114	i	0.85	-9	-78	56	-2.9
Cc1ccc(-c2nnc(OCC3CCCO3)c3ccccc23)cc1 (configuration not stated)	109	i	0.97	-6	·	·	·
COc1ccccc1OCCCC(=O)NCc1ccco1	102	i	1	2	·	·	·
Cc1c(-c2nc(-c3ccc(C(C)(C)C)cc3)no2)n(C)oc1=O	104	i	0.96	·	·	·	·
COc1ccc(SCc2noc(C(=O)NCC3CCCO3)c2C(=O)O)cc1 (configuration not stated)	107	i	0.85	3	-38	222	-3.0
CCOc1ccc(/C=C2\SC(=S)N(NS(=O)(=O)c3ccccc3)C2=O)cc1OC	97	i	0.9	·	·	·	·
COc1ccc(NC(=O)N2CCCC2C(=O)Nc2ccccc2)cc1 (configuration not stated)	105	i	0.88	-3	19	127	-0.7

Carrying on:
SMILES	RGS16-Gao HTS	HSV augment	HSV augment primary fold	PKD1 inh	Insulin prom inh	Insulin prom inh cell count	GALR2 agonist
CCOC(=O)C1(CCOc2ccccc2)CCN(Cc2cccc3nonc23)CC1	103	i	0.81	-7	17	162	·
CC1CCN(C(=O)c2cc(N3C(=O)C4C5CCC(C5)C4C3=O)ccc2Cl)CC1 (configuration not stated)	101	i	0.96	-5	-78	156	·
COc1ccc(N2C(=O)CC(Sc3nc(C)cc(C)c3C#N)C2=O)cc1 (configuration not stated)	108	i	0.89	-7	67	108	-1.6
COc1ccc(Cc2nnc(NC(=O)c3cccs3)s2)cc1	100	i	0.85	10	·	·	-0.5
CC(C)NC(=O)COC(=O)c1ccc(Cl)c(S(N)(=O)=O)c1	99	i	1.1	4	-67	89	·
CCn1cc(Cl)c(C(=O)Nc2ccc(OC)c(OC)c2)n1	98	i	1	8	-20	73	·
Cc1cc(NC(=O)COC(=O)C2COc3ccccc3O2)no1 (configuration not stated)	109	i	0.99	1	55	76	0.5
Cc1c(NC(=O)c2ccc(Br)s2)c(=O)n(-c2ccccc2)n1C	104	i	0.94	2	·	·	·
COc1cccc(NC(=O)CN(C)C(=O)/C=C/c2cc(OC)ccc2OC)c1	99	i	0.99	-7	-13	103	0.2
CCOc1ccc(-c2cc(CCCC(=O)Nc3cc(OC)ccc3OC)no2)cc1	107	i	0.87	2	-21	92	-1.0
COc1ccc(Nc2ccc(S(=O)(=O)N3CCCCCC3)cc2[N+](=O)[O-])cc1	107	i	0.91	4	-46	115	0.5
CCOC(=O)c1c(C)[nH]c(C(=O)CSc2nc(C)cc(C)n2)c1C	102	i	0.74	18	-20	137	-0.9
COc1cc(C(=O)NNc2nc3cc4c(cc3s2)OCO4)cc(OC)c1OC	107	i	0.91	-1	-71	122	-0.7
CCOCC(=O)Nc1ccccc1C(=O)N1CCOCC1	100	i	0.96	1	18	161	·
CCOC(=O)CSc1ccc(S(=O)(=O)N(C)C2CCCCC2)cc1[N+](=O)[O-]	103	i	0.65	-4	3	134	-1.4
CCCCC(=O)Nc1ccc2c3c(cccc13)CC2	62	i	0.99	-12	-59	49	-0.9
CCOc1cc(CNCc2ccccn2)cc(Cl)c1OCC	103	i	0.93	-4	-20	164	·
O=C(O)c1ccccc1/C=N/NC(=S)NC1CCCCC1	103	i	0.94	·	·	·	·
Cc1ccc(NC(=S)NCC2CCCO2)cc1C (configuration not stated)	99	i	0.94	-15	60	172	-0.7
Cc1ccc(NC(=O)c2ccccc2)s1	102	i	0.94	-1	35	118	-2.9
CC(=O)c1ccc(NS(=O)(=O)c2ccccc2)cc1	103	i	0.96	-8	39	177	0.1
O=C(CN1CCc2ccccc21)NC(c1ccccc1)c1ccccc1	19	i	1	0	26	69	-1.0
Clc1cccc(Cl)c1COc1ccccn1	132	i	0.52	0	·	·	-1.5
O=C(OCc1cn(Cc2ccccc2)nn1)c1ccccc1	101	i	0.92	·	·	·	·
Cc1ccccc1NC(=S)NC(=O)c1cc(-c2ccccc2)nc2ccccc12	96	i	0.93	2	·	·	-1.4

Retrieved by structure from the list above:
SMILES	RGS16-Gao HTS	HSV augment	HSV augment primary fold	PKD1 inh	Insulin prom inh	Insulin prom inh cell count	GALR2 agonist
O=C(OCc1cn(Cc2ccccc2)nn1)c1ccccc1	101	i	0.92	·	·	·	·
CCOCC(=O)Nc1ccccc1C(=O)N1CCOCC1	100	i	0.96	1	18	161	·
O=C(O)c1ccccc1/C=N/NC(=S)NC1CCCCC1	103	i	0.94	·	·	·	·
Cc1ccccc1NC(=S)NC(=O)c1cc(-c2ccccc2)nc2ccccc12	96	i	0.93	2	·	·	-1.4
Cc1ccc(NC(=O)c2ccccc2)s1	102	i	0.94	-1	35	118	-2.9
CC(=O)c1ccc(NS(=O)(=O)c2ccccc2)cc1	103	i	0.96	-8	39	177	0.1
CC(C)NC(=O)COC(=O)c1ccc(Cl)c(S(N)(=O)=O)c1	99	i	1.1	4	-67	89	·

The listing continues.
SMILES	RGS16-Gao HTS	HSV augment	HSV augment primary fold	PKD1 inh	Insulin prom inh	Insulin prom inh cell count	GALR2 agonist
O=[N+]([O-])c1cccc(S(=O)(=O)[N-]c2nc3ccccc3nc2-n2cc[n+](Cc3ccccc3)c2)c1	100	i	1.1	·	·	·	·
CCCn1nnnc1SCC(=O)Nc1nnc(CC)s1	102	i	1	14	9	103	-2.1
CCOCCCNC(=O)CN1C(=O)CSc2cc(S(=O)(=O)N3CCCCCC3)ccc21	100	·	·	2	·	·	-4.0
O=C(O)Cc1ccc(O)c(F)c1	102	i	0.93	-4	-38	108	-1.1
C[C@@H]1C=C(C(=O)N2CCOCC2)O[C@H](OCc2ccc(CO)cc2)C1	99	i	0.8	3	·	·	·
Cc1ccc(-c2nn(-c3ccccc3)cc2/C=N/NC(=O)c2ccncc2)o1	101	i	0.75	-7	-45	182	·
CCN1CCCC1CNC(=O)C1CCCN(S(=O)(=O)c2cccc3nsnc23)C1 (configuration not stated)	102	·	·	-9	·	·	-1.9
O=c1cc(Cl)c(-c2ccccc2)n[nH]1	107	i	0.99	-4	-20	144	0.5
Cc1ccccc1-n1nc(-c2cccnc2)cc1C(=O)NN	96	i	1.1	-1	·	·	·
C/C(=C\C(=O)c1ccc(C)cc1)NCc1ccc(F)cc1	·	i	0.93	-14	-56	138	-2.6
O/N=C/c1cc(Br)ccc1OCc1ccc(F)cc1	·	i	0.97	-17	-19	96	-2.4
COc1ccc(/C=N/NC(=O)CCCOc2ccc(Cl)cc2Cl)cc1[N+](=O)[O-]	102	·	·	-3	14	75	-1.7
CCCC(=O)Nc1sc2c(c1C(=O)Nc1ccccn1)CCCC2	105	i	0.95	2	·	·	·
